# Screens: PubChem, National Center for Advancing Translational Sciences (NCATS)
# TRPML1 agonist: activates the human TRPML1 channel | Q9GZU1 | activation, % (test concentration not listed) | actives 0.12% (n = 410,000) | AID 624414 | TRPML1-expressing cells, Ca2+ dye fluorescence, FDSS; host cell line not named in the record; reference of the full effect not given here; in the data active = activation above about 50%; inconclusive = about 30% to 50%; inactive = below about 30%; note: 0% is about no effect; the text of the record puts the active cut at 80%
# Target sequence (Q9GZU1 whole entry, looked up): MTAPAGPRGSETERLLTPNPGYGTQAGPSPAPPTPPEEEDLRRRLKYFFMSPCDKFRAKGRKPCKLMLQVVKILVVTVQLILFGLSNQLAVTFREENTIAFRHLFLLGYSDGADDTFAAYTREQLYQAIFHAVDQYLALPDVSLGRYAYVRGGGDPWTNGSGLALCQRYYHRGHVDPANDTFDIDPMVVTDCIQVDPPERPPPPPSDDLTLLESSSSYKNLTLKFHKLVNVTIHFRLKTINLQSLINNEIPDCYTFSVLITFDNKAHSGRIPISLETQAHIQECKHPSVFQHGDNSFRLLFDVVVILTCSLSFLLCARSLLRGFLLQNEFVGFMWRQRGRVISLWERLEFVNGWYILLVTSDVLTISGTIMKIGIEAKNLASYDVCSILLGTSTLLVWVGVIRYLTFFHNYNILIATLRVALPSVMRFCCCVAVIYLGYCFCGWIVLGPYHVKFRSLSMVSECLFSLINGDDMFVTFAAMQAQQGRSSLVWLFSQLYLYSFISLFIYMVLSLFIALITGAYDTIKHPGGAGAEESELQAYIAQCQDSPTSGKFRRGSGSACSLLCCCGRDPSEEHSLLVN
#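 Tetracycline-induced TRPML1-DL cells are seeded and incubated overnight before loading with a no-wash Ca2+ dye and quencher. Agonist activity is taken from the 110 s fluorescence read following compound pin-transfer on an FDSS, before EC80 54-4 challenge.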
# ClpP mod: qHTS Assay for Activators of ClpP; purified B. subtilis ClpP, FRET peptide cleavage, 20 min; AID 651965, 2013; ATP-dependent Clp protease proteolytic subunit (Bacillus subtilis (strain 168)), P80244; actives 1.9% (n = 340,000); Potency, µM (series often up to 57.5 µM), for the others: at the top dose activity change, negative = active; active = well fitted falling curve with a large enough effect; inconclusive = small, poorly fitted or top-dose-only effect; inactive = no such curve, though single readings can be large or run the other way; note: potency is the fitted concentration of half-maximal effect; the source files actives as falling curves though it sought activators and does not explain the sign; nearly all actives have a fitted effect of over 65% in size; many hits overshoot -100%
# Target sequence (P80244 whole entry, looked up): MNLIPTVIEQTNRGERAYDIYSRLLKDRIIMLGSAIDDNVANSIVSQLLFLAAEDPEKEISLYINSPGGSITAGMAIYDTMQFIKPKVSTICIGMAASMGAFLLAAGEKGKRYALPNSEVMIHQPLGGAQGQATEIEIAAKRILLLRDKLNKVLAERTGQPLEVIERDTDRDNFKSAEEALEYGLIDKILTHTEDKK
#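 Buffer: 100 mM Tris/HCl pH8, 100 mM KCl, 0.05% low protease BSA, 2.5% glycerol, 0.01% Tween-20. ClpP 10 microg/mL final; 20 min RT; delta FRET normalized to ADEP and DMSO controls.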
# Menin MLL FP FL: menin-MLL binding inhibition, fluorescein peptide. Fluorescence polarization, fluorescein-MLL peptide displacement from menin. FP activity change, % at 61.4 µM. 290,000 tested, under 10 active; inconclusive = falling polarisation curve, or a change in total fluorescence; inactive = total fluorescence flat and polarisation flat or rising; no compound was filed as active; the % refers to the polarisation; negative = inhibition;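 note: % of control where 0% means no effect; inhibitors lower the polarisation; unlabelled MLL peptide was the positive control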
# TRPML1 inh: human mucolipin-1 channel inhibition | actives 0.02% (n = 390,000) | activity change, negative = inhibition, % (test concentration not listed) | TRPML1-inducible cells, Ca2+ dye fluorescence, FDSS; active compounds read low; inhibition of EC80 agonist-evoked calcium signal | AID 624415; in the data active means activity change below about -50%; inconclusive means about -30% to -50%; inactive means above about -30%;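 note: stimulus is agonist 54-4 at its EC80 concentration; % is set by controls: 0 for no effect and ±100 for the full control effect; compound concentration not given in the record; the text of the record puts the active cut at -80%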
#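 Calcium fluorescence in TRPML1-DL cells induced overnight with Tet: a 110 s read after compound pin addition, then a 110 s antagonist read after challenge with 54-4 at 4 uM final (EC80).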
# gsp antag: antagonizes gsp, the McCune-Albright syndrome mutation; gsp-mutant cells, cAMP HTRF, 30 min; control for the full effect not named in the record; Potency, µM (titrated, usually from 76.9 µM), for the others: at the highest dose activity change, negative = inhibition, hits mostly inhibitors; actives 0.4% (n = 340,000); AID 624288; active = falling curve of any shape with a large fitted effect; inconclusive = falling curve, mostly with a smaller effect; inactive = flat or rising curve; cell line not stated here;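 note: intracellular cAMP measured with PDE inhibitor Ro 20-1724 present during compound exposure; potency is the fitted concentration of half-maximal effect; % is set by controls: 0 for no effect and ±100 for the full control effect; nearly all actives have a fitted effect of over 65% in size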
#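 G418-selected cells were plated in DMEM/10% FBS for 16-24 h at 37C, then treated with compounds plus the PDE inhibitor […] (300 uM solution added) for 30 min at 37C. Intracellular cAMP was measured by HTRF after 30 min lysis at room temperature.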
# gsp ag: agonists of gsp mutant (McCune-Albright syndrome). gsp mutant cells, cAMP HTRF, 30 min; control for the full effect not named in the record. Potency, µM (series often up to 76.9 µM), for the others: at the highest dose activation (cAMP increase), usual class: activators. actives 0.13% (n = 340,000); active = well fitted activation curve with a large enough effect; inconclusive = small, poorly fitted or top-dose-only effect, or another doubt; inactive = no such curve, though single readings can be large or run the other way; cell line not stated here;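 note: phosphodiesterase inhibitor Ro 20-1724 added with compounds to block cAMP breakdown; potency is the fitted concentration of half-maximal effect; nearly all actives have a fitted effect of over 60% in size; about a fifth of the inactives were tested at one dose only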
#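 Cells stably selected in G418 were plated at 2000/well, grown 16-24 hr, then given compounds in DMSO with the PDE inhibitor […] (300 uM solution added) for 30 min at 37C; cAMP was read by HTRF.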
# Active calls of the source: *; ? = inconclusive; · = not tested or not shown; & = joins results of further samples; [ ] = another dose, or the depositor's remark.
SMILES,TRPML1 agonist,ClpP mod,Menin MLL FP FL,TRPML1 inh,gsp antag,gsp ag
O=C1CCCC2=C1C(c1ccncc1)Nc1ccccc1N2 (stereo not drawn),-0.5,?,4.1,-4,1%,0%
Cn1c(=O)c2c(ncn2CC(=O)N/N=C/C=C/c2ccccc2[N+](=O)[O-])n(C)c1=O,1.3,·,-0.4,10,1%,9%[15.4 µM]
COc1ccc(CNC(=O)CCNC(=O)c2ccc(C(C)(C)C)cc2)cc1OC,0.4,0.1%,·,-1,8%,-28%
NS(=O)(=O)c1ccc(NC(=O)CCc2ccccc2)cc1,1.9,-3.3%,4.0,4,7%,1%
CCCCn1c(-c2csc3c2CCC(C)C3)n[nH]c1=S (stereo not drawn),3.2,0.4%,0.3,1,-11%,1%
COc1ccccc1NC(=O)CN1C(=O)C2(SCC(=O)N2c2ccc(C)c(C)c2)c2ccccc21 (stereo not drawn),2.3,-2.9%,·,46,·,·
CC(C)CNC(=O)CN1C(=O)NC2(CCCc3ccccc32)C1=O (stereo not drawn),7.5,·,-1.0,5,6%,15%
CCC1=Nc2cc(C(=O)NCc3ccco3)ccc2Sc2ccccc21,1.8,1.1%,0.7,1,4%,19%
COc1cccc(NC(=O)CN(C)CC(=O)Nc2ccc(Cl)cc2[N+](=O)[O-])c1,1.0,·,0.6,4,?,-9%[15.4 µM]
NNC(=O)/C(=C\c1cccs1)NC(=O)c1ccccc1,3.6,1.1%,0.3,6,8%,-47%[inhibitor]
S=C(NC1CCCCCC1)NC1CCCC1,-0.7,·,2.8,18,9%,9%[15.4 µM]
NS(=O)(=O)c1ccc(CCNC(=O)c2cc(-c3cc(Cl)ccc3O)n[nH]2)cc1,2.2,-4.1%,5.8,-7,-18%,-2%
COc1ccc(/C=C2\SC(=S)N(CC(=O)NC3CCS(=O)(=O)C3)C2=O)cc1 (stereo not drawn),0.0,1.8%,1.4,-7,2%,-24%
CCN(C[C@H]1N[C@@](C)(C(=O)OC)[C@H]2C(=O)N(C)C(=O)[C@@H]12)C(=O)Nc1ccc(OC)cc1,0.0,-3.3%,·,-8,9%,·
COc1cc(S(=O)(=O)N2CCOCC2)ccc1NC(=O)CSc1nnc(N)s1,-0.6,-0.1%,-0.8,-3,17%,17%
COC(=O)c1[nH]c2cccc(C)c2c1NC(=O)CN1CCN(C(=O)c2ccco2)CC1,-0.3,-30%,6.0,-12,-5%,1%
CCOCCOCCC(C(=O)OCC)P(=O)(c1ccccc1)c1ccccc1 (stereo not drawn),-0.1,-1.7%,-1.1,-7,11%,24%
Cc1ccccc1Nc1nc(N)nc(COC(=O)[C@@H](NC(=O)c2ccco2)C(C)C)n1,1.2,·,·,-1,-10%,-22%
O=C(NCC(=O)N(c1cccnc1)C(C(=O)NCc1ccco1)c1ccccc1)c1ccco1 (stereo not drawn),0.9,-0.3%,2.7,-19,-1%,8%
CC(C)(C)C(=O)/C=C1\SCC(=O)N1CC(=O)N1CCN(c2ccccc2)CC1,-0.6,1.1%,·,5,-17%,4%
COC(=O)c1ccc(Oc2nc(NC(C)C)nc(NC(C)C)n2)cc1,0.6,·,3.1,3,-13%,-1%
O=C(Oc1ccc(C(=S)N2CCOCC2)cc1)c1cccc([N+](=O)[O-])c1,·,-3.1%,5.0,·,8%,12%
COc1ccccc1NC(=O)C1=C(C)Nc2ncnn2C1c1cccs1 (stereo not drawn),-0.2,-0.6%,7.8,-5,-8%,-16%
C/C(=N\NC(=S)NC1CCCCC1)c1cccc(Br)c1,0.4,0.4%,1.9,-15,7%,11%
CCOc1ncccc1C(=O)Nc1ccc(C)c(S(=O)(=O)N2CCCCCC2)c1,2.3,?,·,15,-10%,22%
O=C(Nc1cc(Cl)cc(Cl)c1)c1ccc(F)c(S(=O)(=O)NC2CCCC2)c1,0.7,-9.9%,·,7,·,·
CCCCC1(C)OC(=O)C(=Cc2ccc(SC)cc2)C(=O)O1 (stereo not drawn),2.5,·,3.4,-5,8%,-15%[15.4 µM]
Cc1occc1C(=O)NCc1ccc2c(c1)OCO2,-0.3,-1.9%,3.5,34,9%,12%
COc1ccc(OCCSc2ncccn2)cc1,0.4,-2.2%,-0.6,-8,-1%,4%
COc1ccc(Cl)cc1NS(=O)(=O)c1cccc(C(=O)NC2CC2)c1,-0.3,0.7%,·,16,2%,6%
O=C(Cc1cccs1)N1CCN(C(=O)C2CCCO2)CC1 (stereo not drawn),-0.1,-0.1%,11,7,2%,?
CC1(C)Cc2sc3c(=O)[nH]c(=S)[nH]c3c2CO1,-0.7,2.4%,0.1,-1,-1%,?
CCN(CC)CCCNC(=O)C1c2ccccc2C(=O)N(CCOC)C1c1ccc(F)cc1 (stereo not drawn),-0.3,-1.2%,-6.3,-3,13%,1%[15.4 µM]
COc1ccc(C(=O)NC2CCN(S(=O)(=O)c3ccccc3)CC2)cc1,0.9,·,-1.0,28,-3%,-4%
COc1ccc(-c2nn(-c3ccc(F)cc3)c3c2cnc2cc4c(cc23)OCO4)cc1,0.6,-3.3%,·,-6,·,·
Cc1ccccc1Cn1nc(C)c(NC(=O)c2noc3c2CC(C(C)(C)C)CC3)c1C (stereo not drawn),2.6,0.3%,-1.2,21,-17%,22%
CCOC(=O)C1=C(N)N(c2ccccc2Oc2ccccc2)C(=O)C1,0.0,-0.9%,3.7,23,8%[15.4 µM],-9%
Cc1cc(OCc2cc(C(=O)NCc3csc(C(C)C)n3)no2)cc(C)c1Cl,2.0,0.9%,-1.5,13,-23%,7%
Cc1csc(NC(=O)CSC2=NS(=O)(=O)c3ccccc3N2)n1,-0.2,-0.9%,·,-9,9%,10%
CN(CC(=O)Nc1ccccc1Cl)CC(=O)Nc1sc2c(c1C(N)=O)CCC2,3.0,·,·,-9,-22%,15%[15.4 µM]
CC(=O)N/C(=C\c1cccc([N+](=O)[O-])c1)C(=O)NC1CCCCC1,-1.6,2.9%,·,-15,4%,?
COCc1[nH]nc2c1C(c1sccc1C)C(C#N)=C(N)O2 (stereo not drawn),0.1,-6.4%,0.8,16,10%,-24%
CCOc1ccc(N2C(=O)CC(N(Cc3ccco3)C(=O)CCC(=O)O)C2=O)cc1 (stereo not drawn),0.8,·,-4.4,-11,7%,-13%
c1coc(-c2cc3nc(NCc4ccc5c(c4)OCO5)ccn3n2)c1,-0.4,4.4%,·,2,·,·
Cc1cnc(NC(=O)c2cncc(Br)c2)s1,1.0,·,-1.6,-3,5%,18%
CC(C(=O)Nc1ccccc1)c1ccc(-c2ccccc2)c(F)c1 (stereo not drawn),-0.1,1.2%,-1.5,-15,-16%,-14%
CC(C)(C)n1ncc2c(=O)n(CC(=O)N3CCc4ccccc43)cnc21,-0.1,-0.4%,-2.3,21,10%,?
CCOC(=O)COc1cccc2c(=O)n(CC(=O)NCc3ccccc3)ccc12,-0.9,-23%,1.1,0,14%,?
COc1ccc(/C=N/NC(=O)c2ccc(F)cc2)cc1CN1CCc2cc(OC)c(OC)cc2C1C (stereo not drawn),-0.3,-4.6%,1.7,9,-21%,6%
COc1ccccc1N1CCN(C(=O)C2CCN(S(=O)(=O)c3ccccc3F)CC2)CC1,-0.3,0.6%,·,1,-5%,-2%

# Later entries
SMILES,TRPML1 agonist,ClpP mod,Menin MLL FP FL,TRPML1 inh,gsp antag,gsp ag
CCC(=O)c1ccc(O)cc1,-0.4,0.9%,-2.1&-4.9,2,-4%,·
Cc1ccccc1N1CC(C(=O)Nc2ccc(Br)cc2)CC1=O (stereo not drawn),0.5,0.6%,·,-12,·,·
COc1ccc(/C=C(\C#N)C(=O)Nc2cc(C)c(Cl)cc2OC)cc1O,0.3,0.6%,1.5,1,-8%,2%
O=C(COC(=O)CNS(=O)(=O)c1ccc(Br)cc1Cl)Nc1ccc(N2CCOCC2)cc1,-0.6,2.4%,·,3,-19%,-35%[inhibitor]
CN(Cc1cnc2nc(N)nc(N)c2n1)c1ccc(C(=O)NC(CCC(=O)O)C(=O)O)cc1 (stereo not drawn),2.5,16µM*,3.6,17,-12%,16%
O=C(CCNS(=O)(=O)c1cccc2nonc12)NCCc1ccc(Cl)cc1,-1.1,-0.6%,1.5,-9,-15%,-17%
CCOc1ccc(NS(=O)(=O)c2cc(C)c(C)cc2C)cc1,3.0,-1.4%,2.0,11,-10%,-3%
NNC(=O)C1COc2cc3ccccc3cc2O1 (stereo not drawn),-0.1,0.7%,-5.3,-16,3%,-4%
CCCCn1ccnc1C,-0.7,·,3.0,2,-2%,-5%[15.4 µM]
COc1ccc(OC)c(-n2cnc3cc(C(=O)NC4CCCCCC4)ccc32)c1,0.6,-0.7%,·,-17,·,·

# 3 compounds drawn at random from those above:
SMILES,TRPML1 agonist,ClpP mod,Menin MLL FP FL,TRPML1 inh,gsp antag,gsp ag
COc1ccc(OC)c(-n2cnc3cc(C(=O)NC4CCCCCC4)ccc32)c1,0.6,-0.7%,·,-17,·,·
O=C(CCNS(=O)(=O)c1cccc2nonc12)NCCc1ccc(Cl)cc1,-1.1,-0.6%,1.5,-9,-15%,-17%
O=C(COC(=O)CNS(=O)(=O)c1ccc(Br)cc1Cl)Nc1ccc(N2CCOCC2)cc1,-0.6,2.4%,·,3,-19%,-35%[inhibitor]

# Next section
SMILES,TRPML1 agonist,ClpP mod,Menin MLL FP FL,TRPML1 inh,gsp antag,gsp ag
Cc1ccc(N2CCC3CC2c2cc(-c4ccc(C(F)(F)F)cc4)ccc23)cc1 (stereo not drawn),-0.3,-23%,·,9,·,-65%[inhibitor]
COc1ccc(NC(=O)C2CC(=O)N(C(C)C)C2)cc1 (stereo not drawn),-1.0,0.7%,2.9,-9,0%,-17%
CCOc1ccc2cc(S(=O)(=O)N3CCOCC3)ccc2c1,2.7,?,0.5,-2,15%,-5%
COc1ccc(S(=O)(=O)N2Cc3ccccc3CC2C(=O)N2CCOCC2)cc1OC (stereo not drawn),-0.2,-1.2%,-0.9,21,1%,-12%
Cc1ccc(-c2csc(-c3cc(C)on3)n2)cc1,4.2,-7.2%,2.6,19,2%,11%
CCn1c(CNC(=O)c2ccc(OC)c(OC)c2)nnc1SCC(=O)Nc1ccc(OC)cc1,0.1,0.3%,2.8,-10,10%,-11%[15.4 µM]
Cc1cc(NC(=O)/C=C/c2ccco2)ccc1NC(=O)c1ccccc1,0.0,·,12,7,-5%,-8%
CCc1cccc(C)c1NC(=O)CSc1nnc(-c2ccco2)n1N,-0.6,0.9%,6.4,33,-6%,?
Cc1cc2oc(=O)cc(CN3CCN(S(=O)(=O)/C=C/c4ccccc4)CC3)c2cc1C,1.3,-7.6%,5.0,3,-19%,0%
CC1CCN(c2ccc(C(=O)Nc3nnc(C4CC4)s3)cc2[N+](=O)[O-])CC1,-0.3,·,0.3,-1,6%,20%

# This is a random part of the collection; any-hit rate near 2.1%.
